AF4-AF9 inh: MLL-AF4/AF9 protein interaction inhibition; AlphaScreen, biotin-AF4 peptide binding to FLAG-AF9; P42568; inhibition, % at 10 µM; AID 651704; 0.47% of 350,000 active;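 active = every replicate reaching a set inhibition limit, whatever the replicate mean, cut at about 25% in these data; inconclusive = mean inhibition reaches that limit but some replicates miss it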;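 note: 0% = plate neutral control median and 100% = total signal loss; the record names both 10 and 1 µM as test concentration; the first replicate is given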
Target sequence (P42568 whole entry, looked up): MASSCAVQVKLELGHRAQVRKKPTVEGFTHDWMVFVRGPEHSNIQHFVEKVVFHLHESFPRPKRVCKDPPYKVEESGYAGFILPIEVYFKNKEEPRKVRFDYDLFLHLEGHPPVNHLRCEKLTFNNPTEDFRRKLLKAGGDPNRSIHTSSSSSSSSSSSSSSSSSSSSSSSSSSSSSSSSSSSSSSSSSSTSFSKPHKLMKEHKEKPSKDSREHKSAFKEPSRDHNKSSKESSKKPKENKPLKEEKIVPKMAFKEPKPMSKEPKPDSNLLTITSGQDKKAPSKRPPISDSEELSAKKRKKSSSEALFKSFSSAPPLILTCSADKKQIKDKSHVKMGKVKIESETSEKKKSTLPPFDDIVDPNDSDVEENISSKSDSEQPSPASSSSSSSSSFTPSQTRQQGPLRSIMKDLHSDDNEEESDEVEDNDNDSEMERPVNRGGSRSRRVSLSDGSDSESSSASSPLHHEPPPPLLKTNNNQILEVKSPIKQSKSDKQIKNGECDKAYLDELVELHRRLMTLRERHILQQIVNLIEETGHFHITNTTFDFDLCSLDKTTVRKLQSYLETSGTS
FGF22 binding: shifts melting point of recombinant human FGF22. Q9HCT0. recombinant FGF22 thermal shift, SYPRO orange fluorescence; percent of sucrose octasulfate shift, DMSO zero. calls only at 9.99 µM. 1.5% of 340,000 active;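 active = melting point raised past a set limit in the mean and every replicate; inconclusive = no clear call; three in four hits are not shown here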
Target sequence (Q9HCT0 whole entry, looked up): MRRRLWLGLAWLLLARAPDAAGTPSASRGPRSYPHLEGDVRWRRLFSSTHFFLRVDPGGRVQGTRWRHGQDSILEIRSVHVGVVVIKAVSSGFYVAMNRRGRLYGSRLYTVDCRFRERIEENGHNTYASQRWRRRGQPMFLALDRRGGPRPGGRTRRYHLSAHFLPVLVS
rRNA inh HTS: selective bacterial rRNA inhibition in E. coli; E. coli WT GFP vs humanized-ribosome RFP mutants, fluorescence, 24 h; active compounds read low; DMSO median 0, no signal -100; GFP signal change (wild-type ribosome), % (test concentration not listed); 1.6% of 350,000 active;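 active = significant combined selectivity score with lowered wild-type GFP, culture density cut under 30%, mutant RFP and density less affected; inactive = any of these conditions unmet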; note: one replicate is shown; some compounds called inactive have numbers as strong as hits
rRNA inh HTS OD600: second read-out of rRNA inh HTS, no call of its own (marks repeat the call); OD600 change, %; measured here: OD600 growth;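 optical density of the mix in the first replicate; 0 = DMSO median and -100 = no signal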
rRNA inh HTS RFP: recorded beside rRNA inh HTS, whose call it bears; RFP signal change, %; measured here: RFP humanized mutant strains;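 first replicate; 0 = DMSO median and -100 = no signal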
Numbers without * were called inactive; i = inactive; ? = inconclusive; & = joins results of further samples. Only part of the results is shown (hit frequency here may not be typical).

AF4-AF9 inh	FGF22 binding	rRNA inh HTS	rRNA inh HTS OD600	rRNA inh HTS RFP	Molecule
7.8	i	-9.8	-4.7	1.4	CC(C)C[C@H]1CN(CCCC[C@H]2CNC(=O)C(=O)N2CCc2ccc(O)cc2)C(=O)C(=O)N1CCc1ccccc1
-0.1	i	2.1	-0.3	-0.6	CCCC(=O)N1C[C@H]2[C@@H](c3ccccc31)[C@H](CO)N2C(=O)Nc1ccc(F)cc1
-12.7	i	2.4	4.5	2.9	COc1cccc(CN2[C@@H](CO)[C@H](c3ccccc3)C23CN(C(=O)C2CC2)C3)c1
3.0	i	7.0	17.4	-2.1	CC(C)CC#Cc1cnc2c(c1)C(=O)N([C@H](C)CO)C[C@@H](C)[C@H](CN(C)C(=O)CCN1CCCCC1)O2
1.2	i	-7.2	-4.8	0.3	O=C(NCCc1ccccc1)[C@H]1N[C@H]2c3ccc(-c4ccccc4)c(=O)n3C[C@H]2[C@@H]1CO
1.8	i	-1.8	-49.9	16.0	CCOC(=O)N(C)c1c(CC)nc2c(OCc3ccc(OC(F)F)cc3)cccn12
2.9	i	-7.8	-4.5	2.5	CN(C(=O)c1ccc(NC(=O)Cc2cccc(NC(=O)C3CCN(C(=O)C4CCCCC4)CC3)c2)cc1)C1CC1
0.7	i	-0.4	-9.3	2.7	C[C@@H]1CN([C@@H](C)CO)S(=O)(=O)c2ccc(C3=CCCC3)cc2O[C@@H]1CN(C)C(=O)CC1CC1
0.8	i	-6.8	-22.9	7.2	C[C@@H]1CN([C@H](C)CO)S(=O)(=O)c2ccc(-c3cccc(F)c3)cc2O[C@@H]1CN(C)C(=O)c1cccc(F)c1
-5.6	i	13.6	24.2	2.1	O=C(CNC(=O)c1ccc(Br)cc1)OC1CCOC1=O (centres undefined)
3.0	i	0.9	12.2	4.6	COc1ccc(NC(=O)Nc2ccc3c(c2)CC(=O)N([C@H](C)CO)C[C@H](C)[C@@H](CN(C)Cc2ccc(Oc4ccccc4)cc2)O3)cc1
-0.3	i	2.5	5.9	-2.9	CCS(=O)(=O)Nc1ccc2c(c1)C(=O)N(C)[C@@H]1CC[C@@H](CC(=O)N3CCOCC3)O[C@H]1CO2
-0.6	i	2.0	0.5	-1.5	CCCC(=O)Nc1ccc2c(c1)C(=O)N(C)C[C@H](OC)[C@@H](C)CN(S(=O)(=O)c1cn(C)cn1)[C@H](C)CO2
-0.5	i	-0.9	-7.4	2.3	COc1ccc(S(=O)(=O)N(C)C[C@@H]2OCCCC[C@@H](C)Oc3ccc(NC(=O)CCC(F)(F)F)cc3C(=O)N([C@H](C)CO)C[C@H]2C)cc1
1.1	i	-1.1	-0.1	-1.2	O=C(CCN1CCCCC1)N[C@H]1CC[C@@H](CCNS(=O)(=O)c2ccc(Cl)cc2)O[C@H]1CO
?	i	-54.0	-75.9	-17.3	Nc1ccc2c3c(ccc([N+](=O)[O-])c13)CC2
-2.1	i	-0.4	2.3	0.5	O=C(c1ccccn1)N1CC2(C1)[C@H](c1ccccc1)[C@@H](CO)N2Cc1ccccc1
-3.3	i	6.9	16.6	-1.9	COc1cccc(S(=O)(=O)N2CCCCN3[C@H](C2)[C@H](c2ccc(C#CC(C)C)cc2)[C@@H]3CO)c1
0.5&-0.1&3.0	i	1.1&-1.2	0.3&-2.4	-2.1&2.9	C[C@@H]1CN([C@@H](C)CO)C(=O)c2cc(C#Cc3cccc(F)c3)cnc2O[C@H]1CN(C)C(=O)C1CCCCC1
-4.5	i	9.3	5.5	-1.7	Cc1noc(C)c1S(=O)(=O)Nc1cccc2c1O[C@H](CN(C)Cc1ccc(C(=O)O)cc1)[C@H](C)CN([C@H](C)CO)C2=O
1.2	i	-1.5	-1.9	-1.7	C[C@@H]1CN([C@H](C)CO)C(=O)c2cc(C3=CCCCC3)cnc2O[C@H]1CN(C)C(=O)c1ccc2c(c1)OCO2
0.4	i	0.3	-8.0	0.2	Cc1noc(C)c1S(=O)(=O)Nc1ccc2c(c1)C(=O)N([C@H](C)CO)C[C@H](C)[C@@H](CN(C)S(=O)(=O)c1ccccc1)OCCCC[C@@H](C)O2
-0.3	i	-4.5	-11.2	3.6	COc1ccc(S(=O)(=O)N(C)C[C@H]2Oc3ccc(NC(=O)Nc4ccc(F)cc4)cc3C(=O)N([C@@H](C)CO)C[C@@H]2C)cc1
-5.5	i	1.4	0.2	-2.7	CNC[C@H]1Oc2ccc(NC(=O)c3ccncc3)cc2CC(=O)N([C@H](C)CO)C[C@@H]1C
1.9	i	-1.3	-13.9	2.9	C[C@@H]1CN([C@@H](C)CO)C(=O)c2cc(NC(=O)Nc3ccccc3)ccc2O[C@@H]1CN(C)Cc1ccccc1

Full records as entered above. Values in the order: AF4-AF9 inh	FGF22 binding	rRNA inh HTS	rRNA inh HTS OD600	rRNA inh HTS RFP
Listed for `CCCC(=O)Nc1ccc2c(c1)C(=O)N(C)C[C@H](OC)[C@@H](C)CN(S(=O)(=O)c1cn(C)cn1)[C@H](C)CO2` → -0.6	i	2.0	0.5	-1.5
Listed for `C[C@@H]1CN([C@H](C)CO)C(=O)c2cc(C3=CCCCC3)cnc2O[C@H]1CN(C)C(=O)c1ccc2c(c1)OCO2` → 1.2	i	-1.5	-1.9	-1.7

Remaining list, next part:
AF4-AF9 inh	FGF22 binding	rRNA inh HTS	rRNA inh HTS OD600	rRNA inh HTS RFP	Molecule
2.6	i	2.0	1.8	0.3	COCC(=O)Nc1ccc2c(c1)[C@@H]1C[C@H](CC(=O)N[C@@H](C)c3ccccc3)O[C@@H](CO)[C@@H]1O2
0.8	i	-0.7	0.3	1.3	CC(C)NC(=O)N(C)C[C@@H]1OCCCC[C@@H](C)Oc2ccc(NC(=O)Nc3ccccc3)cc2C(=O)N([C@@H](C)CO)C[C@H]1C
4.9	i	1.4	0.1	-0.7	Cc1noc(C)c1S(=O)(=O)Nc1ccc2c(c1)C(=O)N([C@@H](C)CO)C[C@@H](C)[C@@H](CN(C)C(=O)Nc1ccc3c(c1)OCO3)OCCCC[C@@H](C)O2
-0.3	i	-4.2	-7.7	-1.4	Cc1ccc(S(=O)(=O)N(C)C[C@@H]2Oc3c(NC(=O)c4cnccn4)cccc3C(=O)N([C@H](C)CO)C[C@H]2C)cc1
0.0	i	-2.0	-29.4	25.6	COc1ccccc1NC(=O)N[C@@H]1CC[C@@H](CC(=O)N2CCC(Cc3ccccc3)CC2)O[C@@H]1CO
-0.9	i	-3.4	-7.4	1.2	CCCNC(=O)N1CC2(C1)[C@@H](c1ccccc1)[C@@H](CO)N2Cc1cccc(F)c1
-1.7	i	0.5	-2.2	0.0	C[C@@H]1CN([C@H](C)CO)C(=O)c2c(c3ccccc3n2C)-c2ccccc2CO[C@@H]1CN(C)C(=O)c1ccccc1
-2.6	i	21.0	25.9	-0.5	O=C(c1ccc(-n2cncn2)c2ccoc12)N1CCOCC1
-0.4	i	-2.4	-6.9	1.8	C[C@H]1CN([C@@H](C)CO)C(=O)c2cc(C3=CCCC3)cnc2O[C@@H]1CN(C)C(=O)c1ccc2c(c1)OCO2
-1.4	i	-0.8	6.0	2.8	COc1ccc2c3c([nH]c2c1)[C@H](CO)N(Cc1ccccc1)CC31CN(C(=O)NC(C)C)C1
2.5	i	-11.9	-23.9	14.7	COc1ccc(CN(C)C[C@H]2OCCCC[C@@H](C)Oc3ccc(NC(=O)Nc4cccc5ccccc45)cc3C(=O)N([C@@H](C)CO)C[C@H]2C)cc1
-1.2	i	1.4	1.0	-0.4	COc1ccccc1-c1ccc([C@H]2[C@@H](C#N)N(C(=O)C3CCC3)[C@@H]2CO)cc1
-2.9	i	-29.4	-43.9	28.0	C[C@@H]1CN([C@@H](C)CO)S(=O)(=O)c2ccc(Br)cc2O[C@H]1CN(C)Cc1cccc(F)c1
1.2	i	1.5	0.9	2.0	Cc1ccc(S(=O)(=O)Nc2ccc3c(c2)C(=O)N([C@H](C)CO)C[C@H](C)[C@@H](CN(C)Cc2ccc(C(F)(F)F)cc2)OCCCC[C@@H](C)O3)cc1
2.0	i	-3.7	-16.1	7.6	CC(C)C[C@H]1CN([C@@H](CC(C)C)CN2CCC[C@H]2CN2C(=O)C(=O)NC[C@@H]2Cc2ccc(O)cc2)C(=O)C(=O)N1CC1CCCCC1
-6.7	i	1.8	-1.0	-4.3	COc1ccc(NC(=O)Nc2ccc3c(c2)C(=O)N([C@H](C)CO)C[C@H](C)[C@H](CN(C)S(C)(=O)=O)OCCCC[C@@H](C)O3)cc1
5.1	i	-0.7	-1.0	3.2	C[C@@H]1CN([C@@H](C)CO)C(=O)c2cc(C#CC3CCCCC3)cnc2O[C@H]1CN(C)C(=O)Cc1ccccn1
-0.1	i	-2.4	-5.3	1.1	COCC(=O)Nc1ccc2c(c1)OC[C@@H](C)N(Cc1cccnc1)C[C@@H](C)[C@H](OC)CN(C)C2=O
1.3	i	4.4	-0.2	-0.9	CC(C)CC#Cc1cnc2c(c1)C(=O)N([C@H](C)CO)C[C@H](C)[C@@H](CN(C)C(=O)c1cnccn1)O2
-2.0	i	-1.5	3.7	-2.9	C[C@H]1CN([C@@H](C)CO)C(=O)c2cc(C#CC3(O)CCCC3)cnc2O[C@H]1CN(C)Cc1ccncc1
-0.6	i	0.6	11.0	-0.9	CN1C(=O)c2cc(NC(=O)C3CCCC3)ccc2OC[C@@H]2O[C@H](CC(=O)NCC(F)(F)F)CC[C@H]21
2.8	i	-8.3	-15.5	-2.7	O[C@H]1CN(CC2CCCCC2)[C@@H](c2ccc(Cl)cc2)C[C@@H]1n1cc(C2CC2)nn1
31.8*	i	-9.5	-17.2	-1.1	C[C@H](CO)N1C[C@H](C)[C@H](CN(C)Cc2ccc(C(F)(F)F)cc2)OCCCC[C@H](C)Oc2ccc(N(C)C)cc2C1=O
-3.1	i	3.2	8.6	-6.9	COc1ccc2c3c(n(C)c2c1)[C@@H](CO)N(C)CC31CN(C(=O)c2cccnc2)C1
-2.2	i	-5.0	-8.0	2.3	O=C(NCC[C@@H]1CC[C@H](NS(=O)(=O)c2ccccc2)[C@@H](CO)O1)c1cc(Cl)cc(Cl)c1

Printed as active in AF4-AF9 inh (from the list above):
AF4-AF9 inh	FGF22 binding	rRNA inh HTS	rRNA inh HTS OD600	rRNA inh HTS RFP	Molecule
31.8*	i	-9.5	-17.2	-1.1	C[C@H](CO)N1C[C@H](C)[C@H](CN(C)Cc2ccc(C(F)(F)F)cc2)OCCCC[C@H](C)Oc2ccc(N(C)C)cc2C1=O

Next part
AF4-AF9 inh	FGF22 binding	rRNA inh HTS	rRNA inh HTS OD600	rRNA inh HTS RFP	Molecule
-3.4	i	-0.1	-4.8	-1.5	C[C@H](CO)N1C[C@H](C)[C@H](CN(C)C(=O)NC2CCCCC2)OCCCC[C@H](C)Oc2ccc(NS(=O)(=O)c3cn(C)cn3)cc2C1=O
-11.7	i	6.7	9.4	0.1	C[C@@H]1CCCCO[C@H](CN(C)C(=O)Nc2ccc(F)cc2)[C@@H](C)CN([C@H](C)CO)C(=O)c2cc(NC(=O)Nc3ccc(C(F)(F)F)cc3)ccc2O1
0.5	i	1.2	8.5	0.4	Cc1cc(C(=O)Nc2cccc3c2O[C@H](CN(C)Cc2ccc4c(c2)OCO4)[C@H](C)CN([C@H](C)CO)C3=O)n(C)n1
4.1	i	-3.9	4.7	4.5	CC(C)CC#Cc1ccc2c(c1)O[C@@H](CN(C)C(=O)Nc1ccccc1F)[C@@H](C)CN([C@H](C)CO)S2(=O)=O
-3.3	i	15.2	25.3	-0.1	N#CCCN(C(=O)COC(=O)c1ccc(Cl)nc1)c1ccc2c(c1)OCCO2
-1.7	i	2.7	2.3	0.1	COc1ccc(CNC(=O)CN2C(=O)c3ccccc3S2(=O)=O)cc1
-3.2	i	3.0	18.3	-0.9	C[C@@H]1CN([C@H](C)CO)C(=O)c2cc(NS(=O)(=O)c3ccccc3)ccc2O[C@H]1CN(C)C(=O)Nc1ccccc1
-2.9	i	2.2	7.7	4.5	O=C(C[C@@H]1C=C[C@H](NC(=O)c2ccc3c(c2)OCO3)[C@H](CO)O1)NC1Cc2ccccc2C1
5.0	i	-1.3	-1.9	-0.2	COc1ccc(NC(=O)Nc2ccc3c(c2)C(=O)N([C@H](C)CO)C[C@@H](C)[C@H](CN(C)C(=O)Nc2ccc(F)cc2)OCCCC[C@@H](C)O3)cc1
0.7	i	0.8	-2.1	0.6	C[C@@H]1CN([C@@H](C)CO)C(=O)CCCn2nncc2CO[C@@H]1CN(C)CC1CCCCC1

In the list so far, two have bromine:
AF4-AF9 inh	FGF22 binding	rRNA inh HTS	rRNA inh HTS OD600	rRNA inh HTS RFP	Molecule
-5.6	i	13.6	24.2	2.1	O=C(CNC(=O)c1ccc(Br)cc1)OC1CCOC1=O (centres undefined)
-2.9	i	-29.4	-43.9	28.0	C[C@@H]1CN([C@@H](C)CO)S(=O)(=O)c2ccc(Br)cc2O[C@H]1CN(C)Cc1cccc(F)c1
